Screens: PubChem, National Center for Advancing Translational Sciences (NCATS)
Sfp PPTase inh: Sfp phosphopantetheinyl transferase inhibition. Q9F4F7. Biochemical Sfp PPTase activity, qHTS. Potency, µM, inactives show max response, negative = inhibition, actives largely listed as inhibitors. actives 3.5% (n = 310,000). AID 1490; active means well fitted inhibition curve with a large enough effect; inconclusive means small, poorly fitted or top-dose-only effect, or another doubt; inactive means no such curve, though single readings can be large or run the other way;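 further: the enzyme is Sfp with the accession as filed and its product quenches rhodamine fluorescence; potency means the concentration at half of the fitted maximal effect; 0% = enzyme reaction without inhibitor and -100% = no enzyme wells; top concentration of the series not given in the record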
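Fluorescence-quenching assay: 15 nM Sfp-PPTase preincubated 15 min at room temperature with compound, then 5 uM rhodamine-CoA and 12.5 uM BHQ-2-labelled YbbR peptide added. Fluorescence (ex 525/em 598 nm) read at start and after 30 min; difference gives rate.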
Menin-MLL FL inh: displaces fluorescein MLL peptide from human menin; Fluorescence polarization, fluorescein-MLL peptide displacement from menin; FP activity change, % at 61.4 µM; 290,000 tested, under 10 active; inconclusive = falling polarisation curve, or a change in total fluorescence; inactive = total fluorescence flat and polarisation flat or rising; no compound was filed as active; the % refers to the polarisation; negative = inhibition;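 further: % of control where 0% means no effect; inhibitors lower the polarisation; unlabelled MLL peptide was the positive control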
TRPV1 PAM: enhances activation of the human vanilloid receptor TRPV1. TRPV1-expressing cells, Fluo-8 calcium influx, capsaicin EC20 potentiation; host cell line not named in the record; control for the full effect not named in the record. potentiation, % at 8.33 µM. actives 0.02% (n = 320,000). AID 540277; active means potentiation above 80%; inconclusive means 30% to 80%; inactive means below 30%; further: 0% is about no effect
Target sequence (Q8NER1 whole entry, looked up): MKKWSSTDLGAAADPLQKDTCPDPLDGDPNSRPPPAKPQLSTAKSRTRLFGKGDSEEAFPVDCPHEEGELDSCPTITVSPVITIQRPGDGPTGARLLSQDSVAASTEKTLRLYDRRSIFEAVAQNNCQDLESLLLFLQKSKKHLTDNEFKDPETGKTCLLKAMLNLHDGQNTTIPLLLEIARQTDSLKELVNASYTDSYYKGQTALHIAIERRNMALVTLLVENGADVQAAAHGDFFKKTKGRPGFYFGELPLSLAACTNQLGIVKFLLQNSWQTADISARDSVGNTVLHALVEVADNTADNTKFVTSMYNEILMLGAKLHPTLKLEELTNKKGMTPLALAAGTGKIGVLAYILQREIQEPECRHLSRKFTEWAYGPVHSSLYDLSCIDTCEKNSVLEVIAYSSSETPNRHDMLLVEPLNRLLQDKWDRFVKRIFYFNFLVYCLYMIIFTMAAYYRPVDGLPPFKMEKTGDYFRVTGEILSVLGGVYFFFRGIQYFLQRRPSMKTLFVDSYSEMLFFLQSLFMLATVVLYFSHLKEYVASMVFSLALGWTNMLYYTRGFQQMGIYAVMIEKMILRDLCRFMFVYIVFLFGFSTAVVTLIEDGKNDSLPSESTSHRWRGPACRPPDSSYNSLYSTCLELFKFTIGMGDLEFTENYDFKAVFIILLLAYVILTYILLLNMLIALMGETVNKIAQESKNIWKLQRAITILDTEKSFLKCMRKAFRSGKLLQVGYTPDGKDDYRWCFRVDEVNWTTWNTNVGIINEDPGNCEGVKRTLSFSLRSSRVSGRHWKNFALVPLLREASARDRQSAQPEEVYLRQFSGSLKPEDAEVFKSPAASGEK
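Fluo-8 calcium influx in TRPV1-expressing cells, kinetic read (ex 480/em 520 nm). Compound added and read 3 min for agonist activity, followed by capsaicin at EC20 final and 2 min further read for enhancement.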
ClpP mod: qHTS Assay for Activators of ClpP | purified B. subtilis ClpP, FRET peptide cleavage, 20 min | Potency, µM (highest dose often 57.5 µM), for inactives: top-dose activity change, negative = active | actives 1.9% (n = 340,000); active = well fitted falling curve with a large enough effect; inconclusive = small, poorly fitted or top-dose-only effect; inactive = no such curve, though single readings can be large or run the other way; further: potency means the concentration at half of the fitted maximal effect; the source files actives as falling curves though it sought activators and does not explain the sign; nearly all actives have a fitted effect of over 65% in size; many hits overshoot -100%
Target sequence (P80244 whole entry, looked up): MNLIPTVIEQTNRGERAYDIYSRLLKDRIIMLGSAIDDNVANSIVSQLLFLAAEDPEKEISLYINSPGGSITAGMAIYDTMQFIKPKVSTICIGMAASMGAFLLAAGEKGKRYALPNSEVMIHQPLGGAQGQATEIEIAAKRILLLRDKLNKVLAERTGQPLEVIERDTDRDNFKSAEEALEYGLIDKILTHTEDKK
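Buffer: 100 mM Tris/HCl pH8, 100 mM KCl, 0.05% low protease BSA, 2.5% glycerol, 0.01% Tween-20. ClpP 10 microg/mL final; 20 min RT; delta FRET normalized to ADEP and DMSO controls.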
gsp ag: gsp mutant agonism | gsp mutant cells, cAMP HTRF, 30 min; control for the full effect not named in the record | actives 0.13% (n = 340,000) | Potency, µM (titrated, usually from 76.9 µM), without a hit: top-dose activation (cAMP increase), usual class: activators; active = well fitted activation curve with a large enough effect; inconclusive = small, poorly fitted or top-dose-only effect, or another doubt; inactive = no such curve, though single readings can be large or run the other way; cell line not stated here;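 further: phosphodiesterase inhibitor Ro 20-1724 added with compounds to block cAMP breakdown; potency means the concentration at half of the fitted maximal effect; nearly all actives have a fitted effect of over 60% in size; about a fifth of the inactives were tested at one dose only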
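Cells stably selected in G418 were plated at 2000/well, grown 16-24 hr, then given compounds in DMSO with the PDE inhibitor […] (300 uM solution added) for 30 min at 37C; cAMP was read by HTRF.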
D2 potentiator: human D2 receptor positive allosteric modulation | P14416 | DiscoveRx D2 beta-arrestin cells, luminescence, 90 min; 100% = 57 uM dopamine signal | potentiation, % (test concentration not listed) | actives 0.23% (n = 360,000); active = potentiation of 50% or more; inconclusive = 30% to 50%; inactive = 30% or less;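 further: compound concentration not given in the record; tested on top of an EC20 dose of dopamine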
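PathHunter D2 cells, attached overnight at 37 deg C, received compound in DMSO plus dopamine at EC20 (50 nM final) for 90 min at 37 deg C. Beta-arrestin recruitment was read as luminescence after 1 h with detection reagent at ambient temperature.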
gsp antag: antagonizes gsp, the McCune-Albright syndrome mutation; gsp-mutant cells, cAMP HTRF, 30 min; control for the full effect not named in the record; actives 0.4% (n = 340,000); Potency, µM (highest dose often 76.9 µM), for inactives: top-dose activity change, negative = inhibition, usual class: inhibitors; active = falling curve of any shape with a large fitted effect; inconclusive = falling curve, mostly with a smaller effect; inactive = flat or rising curve; cell line not stated here;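 further: intracellular cAMP measured with PDE inhibitor Ro 20-1724 present during compound exposure; potency means the concentration at half of the fitted maximal effect; on the % scale 0 is the no-effect control and ±100 the full control effect; nearly all actives have a fitted effect of over 65% in size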
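Cells in G418 medium, seeded 16-24 h, 37C; buffer exchange to DPBS + 1 mM CaCl2, 0.5 mM MgCl2, 0.05% BSA; cpds in DMSO + […] (300 uM stock), 30 min 37C; HTRF cAMP detection.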
* = called active by the depositor; u = inconclusive; x = no result given; & = joins results of further samples; ! = not active in a repeat; [ ] = another dose, or the depositor's remark. Some of the compounds tested. The share of hits here may be higher or lower than overall.

SMILES	Sfp PPTase inh	Menin-MLL FL inh	TRPV1 PAM	ClpP mod	gsp ag	D2 potentiator	gsp antag
CC(C)CCNC(=O)c1c(N)n(Cc2ccc3c(c2)OCO3)c2nc3ccccc3nc12	-11%	18	0	28µM*	-32%[inhibitor]	-8	5%
CC1(C)C(c2ccccc2)=NC(c2cccnc2)=[N+]1[O-]	-8%	2.7	14	3.0%	-21%	-2	5%
CN1C(=O)N(C)C(=O)C2(Cc3cc([N+](=O)[O-])ccc3N(C)C2)C1=O	20%	0.6	-5	2.6%	u	-6	-7%
O=c1cccc2n1CC1CC2CN(C(c2ccccc2)c2sc3ncnn3c2O)C1 (centres undefined)	-2%	1.7	-2	-1.7%	22%	-1	7%
C/C(=N\NC(=S)Nc1ccccc1)c1c(O)n(C)c(=O)n(C)c1=O	28µM*	7.4	12	-1.0%	u	1	4%
C/C(=N\Nc1ccccc1)c1c(O)[nH]c(=O)[nH]c1=O	-9%	5.2	21	x	-28%	-4	0%
Cc1cc(NC(=O)COC(=O)c2c(C)nn(Cc3ccccc3Cl)c2C)no1	8%	1.2	-3	1.0%	20%	-14	28%
O=c1[nH]c(=O)n(Cc2ccco2)c(O)c1C=NC1CCN(Cc2ccccc2)CC1	10%	23	-3	x	-49%	-2	-9%
COc1cc2c(cc1OC)C(C(=O)N1CCC3(CC1)OCCO3)C(c1ccccc1F)N(C)C2=O (centres undefined)	-2%	0.0	-32	4.9%	2%	5	7%
COCCNC(=O)c1ccc(N2CC3CC(C2)c2cccc(=O)n2C3)c([N+](=O)[O-])c1 (centres undefined)	-16%	-5.5	13	0.0%	-8%[15.4 µM]	-14	11%

The closing 2 records of the section above lead into the next.
SMILES	Sfp PPTase inh	Menin-MLL FL inh	TRPV1 PAM	ClpP mod	gsp ag	D2 potentiator	gsp antag
COc1cc2c(cc1OC)C(C(=O)N1CCC3(CC1)OCCO3)C(c1ccccc1F)N(C)C2=O (centres undefined)	-2%	0.0	-32	4.9%	2%	5	7%
COCCNC(=O)c1ccc(N2CC3CC(C2)c2cccc(=O)n2C3)c([N+](=O)[O-])c1 (centres undefined)	-16%	-5.5	13	0.0%	-8%[15.4 µM]	-14	11%
COc1ccc(CCNCc2c(OC)ccc3ccccc23)cc1	-11%	-2.6	21	-1.0%	-4%	-49	3%
CCCCCC(=O)N[C@@H](c1ccccc1)[C@@H](O)C(=O)O[C@H]1C[C@@]2(O)[C@@H](OC(=O)c3ccccc3)C3[C@](C)(C(=O)[C@H](O)C(=C1C)C2(C)C)[C@@H](OC1OCC(O)C(O)C1O)C[C@H]1OC[C@@]31OC(C)=O (some centres undefined)	5%	2.2	-17	1.3%	u	-2	14%
O=c1cccc2n1CC1CC2CN(CC(O)CN2CC3CC(C2)c2cccc(=O)n2C3)C1 (centres undefined)	1%	-6.1	-3	-3.6%	-3%	-9	7%
O=c1[nH]c(=O)n(-c2ccc(F)cc2)c(O)c1/C=C1\C=Nc2ccccc21	-1%	u	u	x	26%	-6	-18%
CC(C(=O)c1cn(C)c2ccccc12)c1ccccc1 (centres undefined)	-10%	2.8	4	-0.8%	-35%[inhibitor]	-10	-27%
Fc1ccccc1N1CCN(Cc2ccc3c(c2)OCO3)CC1	u	3.2	-12	0.1%	u	11	13%
CCN(CC)P(=O)(c1n(CC)cc[n+]1CC)N(CC)CC	-2%	0.5	4	x	5%[15.4 µM]	-1	-6%
Cn1c(=O)n(C)c2cc([N+](=O)[O-])c(N3CCNCC3)cc21	17%	-3.4	2	1.5%	6%[15.4 µM]	-15	9%
CN1CCN(c2ccc([N+](=O)[O-])c(N)c2)CC1	20%	0.5	3	-2.6%	u	-19	15%
Cc1ccsc1C(=O)C1CCCN(Cc2ccn[nH]2)C1 (centres undefined)	-5%	4.0	14	0.4%	-10%	-28	2%
CCC(C)C1N=C(c2ccccc2)c2cc(Cl)ccc2N(CC(=O)NCc2ccco2)C1=O (centres undefined)	1%	3.5	-11	2.0%	16%	-5	-5%
COc1ccc2c(c1)c(C(=O)CN1CCC3(CC1)OCCO3)c(C)n2Cc1ccccc1	1%	2.0	-1	-2.9%	4%	-8	0%
CN=C1CN(O)C(c2ccccc2)=c2cc(Cl)ccc2=N1	x	x	x	2.9%	x	-8	-5%
CN1C(=O)C(=Cc2ccc(N3CCCCC3)o2)C(=O)N(C)C1=S	56µM*	u	8	-0.8%	-7%	-4	10%
Cc1cc(=O)oc2c(C)c(OCC(=O)N3CCN(Cc4ccc5c(c4)OCO5)CC3)ccc12	3%	1.7	-11	3.2%	0%	-4	-16%
CC(C)(O)[C@H]1O[C@H]2CC[C@@]3(C)[C@@](O)(CC[C@H]4Cc5c([nH]c6ccccc56)[C@@]43C)C2=CC1=O	11%	u	3	0.8%	x	-10	-15%
O=C(c1ccc2c(c1)OCO2)N1CCC2(CC1)OCCO2	13%	4.6	2	1.9%	u	-4	14%
CCOc1ccc(Cc2c(O)[nH]c(=O)[nH]c2=O)cc1	20µM*	-1.0	1	-2.6%	-34%[inhibitor]	-9	6%
COC(=O)C1=C(c2cccc(C#N)c2)C[C@@H]2CC[C@H]1N2C(=O)NC(C)C	x	x	-29	2.1%	x	-11	2%
O=C(C(=O)N1CCOCC1)c1cn(Cc2ccccc2)c2ccccc12	-1%	2.5	-16	-0.9%	1%[15.4 µM]	2	9%
NC(=O)CSc1nnc([C@@H](N)Cc2c[nH]c3ccccc23)o1	u	15	-7	-2.9%	43%	-14	10%
CSc1nnc(OC(=O)N(C)C)n1-c1ccc(Cl)cc1	8%	1.1	x	-0.5%	-2%	-11	4%
CSc1ccccc1NP1(=O)OCC(C)([N+](=O)[O-])CO1 (centres undefined)	x	x	x	-2.9%	7%	-15	0%
O=c1c2ccccc2nc(CNCC2CCCO2)n1-c1ccc(F)cc1 (centres undefined)	14%	-2.4	-9	x	-10%	-6	0%
COc1nc(C)nc(NC(=O)NS(=O)(=O)c2ccccc2Cl)n1	x	x	x	-1.7%	x	-5	0%
COc1ccc(-c2cc(=NCCC(=O)O)c3cc(C)ccc3o2)cc1	1%	3.9	-18	-0.6%	4%[15.4 µM]	-4	-3%
O=C1NC(=O)N(c2ccccc2F)C(=O)/C1=C/c1ccc(Sc2nc3ccccc3[nH]2)o1	50µM*	u	-10	-1.4%	32%[15.4 µM]	-6	-6%
O=P(N1CCCCCC1)(N1CCCCCC1)N1CC1	x	x	x	-14%	4%	2	14%
CC12CCCCC1N(O)CN2O (centres undefined)	-7%	1.2	-1	0.6%	-29%	-13	1%[15.4 µM]
OC1C2CN3CN(C2)CC1(c1ccccc1)C3 (centres undefined)	15%	-1.2	-9	0.1%	-35%	-5	12%
CC(C)OS(C)(=O)=O	x	x	4	1.2%	x	-2	-1%
CC1CCSP(=O)(Oc2ccccc2)O1 (centres undefined)	-3%	1.7	-16	x	-1%	-5	1%
CC(CC(C#N)(c1ccccc1)c1ccccc1)N(C)C (centres undefined)	x	x	x	0.5%	x	-19	9%
N#CCCn1cc(C(=O)Nc2ccc([N+](=O)[O-])cc2)c(-c2ccccc2)n1	14%	4.7	2	0.3%	2%	-18	-22%
C#CCN(C)[C@H](C)Cc1ccccc1	24%&9%&17%	-4.7&-13	11	0.2%	x	2	9%
C[C@H]1[C@H](OC(=O)CCC(=O)NCc2ccc(C(=O)O)cc2)O[C@@H]2O[C@@]3(C)CC[C@H]4[C@H](C)CC[C@@H]1C24OO3	14%	0.7	-4	x	42%	10	6%
N#Cc1cc(F)c(N2CCNCC2)cc1Cl	11%	-0.5	-4	-1.5%	-33%[inhibitor]	-1	13%
CCOc1ccc(NC(=O)C2C(C(=O)O)C3(Cl)C(Cl)=C(Cl)C2(Cl)C3(Cl)Cl)cc1 (centres undefined)	14%	5.3	20	x	-33%[inhibitor]	2	-8%
CCCCCCCCCCCCCCCC[n+]1ccccc1	50µM*!	-6.6&2.0	x	2.6%&-0.4%	-13%	x	11%&5%
CN1CCc2cc3c(c4c2C1Cc1ccccc1-4)OCO3 (centres undefined)	-27%	u	-12	x	-4%	-18	3%
O=C(COC(=O)Cc1ccccc1)Nc1cc(S(=O)(=O)N2CCOCC2)ccc1N1CCCC1	-9%	-1.5	15	-12%	-2%	-5	0%
CN1C2CCC1CC(OC(=O)CCN1CCCC1)C2 (centres undefined)	3%	-0.2	13	-2.4%	-46%[inhibitor]	-3	6%
CN1CCN(c2nc(Cl)ncc2F)CC1	u	0.5	-7	x	24%	-5	8%
CNC(C)Cc1ccccc1Sc1ccc(O)cc1 (centres undefined)	6%	1.5	20	0.4%	5%	-42	25%
Cc1cccc(NC(=O)N2CCCC2)c1	24%	0.1	3	-1.7%	-23%	-10	40%[activator]
CCOC(=O)C1CCCN(c2ccc([N+](=O)[O-])c3nonc23)C1 (centres undefined)	-11%	u	-10	-2.1%	10%	-15	-2%
O=[N+]([O-])c1ccc(NCc2ccccc2)c2nonc12	15%	u	-7	x	-1%	4	-9%
C/C(=N\NC(=O)c1ccccc1)c1c(O)n(Cc2ccccc2)c(=O)[nH]c1=O	1%	27	-7	x	-4%[15.4 µM]	-2	u
CCC(=Nc1cccc(C(F)(F)F)c1)c1c(O)n(C)c(=O)n(C)c1=O	-7%	5.3	17	x	4%[15.4 µM]	-5	11%
CNS(=O)(=O)c1ccc(N=Cc2c(O)n(-c3ccc(C)cc3)c(=O)[nH]c2=O)cc1	20%	u	-1	x	-42%[15.4 µM]	-2	3%
Other compounds
SMILES	Sfp PPTase inh	Menin-MLL FL inh	TRPV1 PAM	ClpP mod	gsp ag	D2 potentiator	gsp antag
CNC(=O)Oc1ccc2ncccc2c1	2%	0.3	-2	-2.1%	u	-24	8%
O=C1NC(=O)C(C(CC(=O)c2ccccc2)c2ccccc2)C(=O)N1 (centres undefined)	20%	-4.3	5	x	7%[15.4 µM]	-5	8%
ClCCN(CCCl)c1ccc(C2=NCCc3ccccc32)cc1	x	x	x	u	6%[15.4 µM]	-27	6%
COc1cc2c(cc1OC)C(C)NCC2 (centres undefined)	14%&19%	-4.0&-1.8	8	-1.0%	x	-12	4%
Cc1ccc(N2C(=O)NC(=O)/C(=C\c3ccoc3)C2=O)cc1	u	u	0	x	14%	-4	-10%
